Screening data deposited in PubChem by National Center for Advancing Translational Sciences (NCATS).
Cruzain inh Det – blocks cruzain activity in presence of Triton detergent | purified cruzain, Z-FR-AMC fluorescence, 0.01% Triton | 0.43% of 200,000 active | Potency, µM, for inactives: max response, negative = inhibition, hits mostly inhibitors;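 also: plate controls were neutral wells for no effect and buffer without enzyme for full effect; nearly all actives have a fitted effect of over 40% in size; top concentration of the series not given in the record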
Target sequence (P25779 123-467 limits assumed): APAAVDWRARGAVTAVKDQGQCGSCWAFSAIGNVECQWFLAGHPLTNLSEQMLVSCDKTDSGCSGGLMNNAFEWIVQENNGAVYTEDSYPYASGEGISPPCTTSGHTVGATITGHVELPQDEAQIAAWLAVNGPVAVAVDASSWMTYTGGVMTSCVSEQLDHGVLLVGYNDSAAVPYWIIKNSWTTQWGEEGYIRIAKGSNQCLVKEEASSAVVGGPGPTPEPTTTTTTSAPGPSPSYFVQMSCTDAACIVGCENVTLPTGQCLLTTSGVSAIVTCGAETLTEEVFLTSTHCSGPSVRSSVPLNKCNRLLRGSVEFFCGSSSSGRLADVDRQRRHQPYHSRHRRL
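Cruzain (1.5 nM) preincubated 15 min at RT with compound in 100 mM sodium acetate pH 5.5, 5 mM DTT, 0.01% Triton X-100. Reaction started with 2 uM Z-FR-AMC; AMC fluorescence (ex 360/em 450 nm) change over 60 s gave rate.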
Cruzain noTriton – cruzain (T. cruzi) inhibition without detergent; purified cruzain, Z-FR-AMC fluorescence, no detergent; 2.3% of 200,000 active; Potency, µM, without a hit: max response, negative = inhibition, actives largely listed as inhibitors; P25779;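 also: plate controls were enzyme without inhibitor for no effect and buffer without enzyme for full effect; nearly all actives have a fitted effect of over 40% in size; top concentration of the series not given in the record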
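Detergent-free condition (0.00005% Triton X-100) in acetate buffer pH 5.5 with DTT. 1.5 nM enzyme and compound were pre-mixed 15 min, then 2 uM Z-FR-AMC substrate added; reaction progress from fluorescence change between first and third reads (60 s).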
StopGo reporter – lowers the luciferase signal of an FMDV 2A StopGo reporter; 1.2% of 410,000 active; Potency, µM (doses to about 57.9 µM), for the others: top-dose signal change, negative = less light; human cells with a luciferase reporter of 2A StopGo recoding; control for the full effect not named in the record; active = well fitted falling curve with a large enough effect; inconclusive = small, poorly fitted or top-dose-only effect; inactive = no such curve, though single readings can be large or run the other way; tested in HEK293T cells; also: % is scaled to controls: 0 for no effect and ±100 for the full control effect; nearly all actives have a fitted effect of over 45% in size; luciferase light after 4 h
Lassa entry inh – blocks Lassa virus binding to or entry into cells; Lassa virus pseudotype entry inhibition, cell reporter; control for the full effect not named in the record; Potency, µM (highest dose often 37.9 µM), inactives show at the highest dose activity change, negative = inhibition, usual class: inhibitors; 1.2% of 300,000 active; active means well fitted inhibition curve with a large enough effect; inconclusive means small, poorly fitted or top-dose-only effect, or effect the other way; inactive means flat fitted curve, though single readings scatter; tested in HEK293 cells; also: % is scaled to controls: 0 for no effect and ±100 for the full control effect; nearly all actives have a fitted effect of over 50% in size; luciferase read-out
NS1 inh – influenza NS1 inhibition; S. cerevisiae slowed by influenza A NS1, growth recovery by OD600; Potency, µM (highest dose often 46.1 µM), without a hit: at the top dose activity, positive = more growth; 0.4% of 270,000 active; AID 2326; active means well fitted rising curve with a large enough effect; inconclusive means small, poorly fitted or top-dose-only effect; inactive means no such curve, though single readings can be large or run the other way; also: nearly all actives have a fitted effect of over 50% in size
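A cell-based growth assay was used: compounds that relieve NS1-induced slow growth of budding yeast raise OD600. Assay medium was yeast nitrogen base with ammonium sulphate and -URA supplement, pH 6.0, with 2% galactose.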
RE007 growth inh – less growth of the S. pombe RE007 Vpr strain | Potency, µM (titrated, usually from 92.2 µM), without a hit: at the top dose activity change, negative = less growth | S. pombe RE007 Vpr strain, BacTiter-Glo ATP luminescence, 24 h; control for the full effect not named in the record | 0.21% of 360,000 active; active = well fitted falling curve with a large enough effect; inconclusive = small, poorly fitted or top-dose-only effect; inactive = no such curve, though single readings can be large or run the other way;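 also: % is scaled to controls: 0 for no effect and ±100 for the full control effect; nearly all actives have a fitted effect of over 50% in size; the assay follows cell death caused by Vpr and the record does not say whether a fall means rescue or toxicity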
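Fission yeast strain RE007, carrying one chromosomally integrated HIV-1 vpr copy, was seeded at OD 0.01 in PMG+AL medium with 23 nL pinned compound. After 24 h at 30 °C and 99% humidity, viability was read by BacTiter-Glo luminescence.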
MARV entry inh – inhibitors of Marburg virus binding or cell entry; Marburg virus pseudotyped entry inhibition, cell reporter; control for the full effect not named in the record; about a third of the inactives were read at about 46 µM; Potency, µM (series often up to 37.8 µM), without a hit: at the top dose activity change, negative = inhibition, usual class: inhibitors; 1.8% of 300,000 active; AID 540276; active = well fitted inhibition curve with a large enough effect; inconclusive = small, poorly fitted or top-dose-only effect, or effect the other way; inactive = flat fitted curve, though single readings scatter; tested in HEK293 cells; about a fifth of its hits are not listed in these tables; also: % is scaled to controls: 0 for no effect and ±100 for the full control effect; luciferase read-out
SARS PLP yeast – inhibitors of SARS-CoV papain-like protease in yeast; S. cerevisiae expressing SARS-CoV PLpro, growth rescue; control for the full effect not named in the record; Potency, µM (series often up to 32.9 µM), for the others: top-dose activity, positive = growth rescue; 0.19% of 330,000 active; active means well fitted rising curve with a large enough effect; inconclusive means small, poorly fitted or top-dose-only effect; inactive means no such curve, though single readings can be large or run the other way; also: 0% is about no effect; nearly all actives have a fitted effect of over 55% in size; growth read by luminescence after 48 h
* hit, by the source's call; ? = inconclusive; / = not tested or not shown; & = joins results of further samples; [ ] = another dose, or the depositor's remark. Unless noted, calls follow the shape of the dose curve; as a rule, active = well fitted curve in the direction sought with a large enough effect; inconclusive = small, poorly fitted or top-dose-only effect, or another doubt; inactive = no such curve, though single readings can be large; an effect the other way counts as inactive or inconclusive. Potency is read from the fitted curve at half-maximal effect.

SMILES,Cruzain noTriton,StopGo reporter,Cruzain inh Det,MARV entry inh,RE007 growth inh,NS1 inh,SARS PLP yeast,Lassa entry inh
Cc1ccc(Cn2ccc(NC(=O)c3cc(CC(C)C)on3)n2)cc1,-3.2%,-19.0%,-12.0%,/,2.5%,-52.4%,-22.4%,/
CC(C)(C)OC(=O)NCCc1nnc(SCc2ccccc2Cl)o1,14.6%,4.2%,2.9%,-4.2%,-12.2%,-62.8%,3.1%,?
CN(C(=O)c1cc2nc(-c3ccco3)cc(C(F)(F)F)n2n1)c1ccc(OC(F)(F)Cl)cc1,0.3%,-27.8%,-1.6%,6.4%[46.1 µM],/,/,/,?
CC(C)CN1CC(C)C(=O)N(c2ccccc2)C1=S (stereo not given),/,-19.0%,/,0.5%[46.1 µM],7.1%,/,/,16.6%[46.1 µM]
CCN(CC)CCn1c2c(c(SCC(=O)Nc3ccc4c(c3)OCCO4)nc1=O)CCC2,/,-16.7%,/,-16.8%,-15.6%,/,0.3%,20.7%
COc1ccc(S(=O)(=O)N2CCCC2)cc1C(=O)N1CCCCC1,/,-8.2%,/,3.3%,6.0%,5.8%,10.0%,-1.6%
COC(=O)c1cc(=O)c2cccc(OC)c2[nH]1,/,-13.5%,/,/,2.9%,-5.9%,0.6%,/
O=[N+]([O-])c1ccccc1CN1CC=C(c2ccc(F)cc2)CC1,/,2.1%,/,/,-14.2%,-4.3%,2.3%,/
Cc1ccccc1OCC(=O)Nn1c(COc2ccccc2)nc2ccccc2c1=O,-0.9%,25.9%,-1.0%,0.4%[46.1 µM],16.6%,-7.6%,-19.4%,-34.2%
COC(=O)c1cc(C(=O)Nc2nc3ccccc3[nH]2)cc([N+](=O)[O-])c1,/,10.8%,/,0.7%[46.1 µM],3.8%,-8.0%,18.6%,16.7%
COc1cccc(CNCc2ccc(OC)c3ccccc23)c1OC,/,-15.4%,/,?,-21.9%,0.3%,1.2%,?
O=C(COc1ccc(Br)cc1)N/N=C1/SCC(=O)N1Cc1ccco1,/,2.2%,/,-20.2%[46.1 µM],-5.3%,0.4%,-2.8%,-4.1%
COc1ccc(C2C(C#N)=C(N)N(c3sc4c(c3C#N)CCCC4)C3=C2C(=O)CC(C)(C)C3)cc1 (stereo not given),-24.4%,-13.0%,-0.5%,?,19.5%,-0.8%,1.0%,?
CCCC(=O)Nc1nnc(SCC(=O)N2CCCCC2)s1,/,9.8%,/,0.2%[46.1 µM],-6.0%,12.5%,-2.2%,/
NS(=O)(=O)c1cccc(NC(=O)CN2CCc3ccccc32)c1,/,24.1%,/,-6.1%[46.1 µM],-4.4%,15.6%,-1.2%,27.8%[46.1 µM]
COc1ccc(C2=NN(C)C(=NCc3ccccc3)SC2)cc1,-3.8%,19.5%,-1.7%,0.6%,-1.9%,-83.7%,2.5%,0.4%
Fc1ccc(Nc2nc3nonc3nc2Nc2cccc(C(F)(F)F)c2)cc1,-5.2%,?,-12.5%,2.24µM*,/,/,/,?
O=C(c1cc([N+](=O)[O-])cc([N+](=O)[O-])c1)N(c1ccccn1)c1ccccn1,-0.9%,-24.9%,1.5%,?,-15.0%,-0.6%,11.5%,17.6%
O=C(Nc1ccc(Cl)cc1)C(Cl)C(=O)c1ccccc1 (stereo not given),/,29.8%,/,16.9%[46.1 µM],11.2µM*,-43.6%,-17.4%,-12.8%[46.1 µM]
CCOc1ncccc1C(=O)Nc1ccc2nc(C)sc2c1,/,0.0%,/,?,-12.1%,-32.8%,-0.8%,?
Cc1nc2ccccc2c2c(N)cccc12,/,-6.2%,/,17.3%[46.1 µM],3.1%,/,/,4.2%[46.1 µM]
CCC[n+]1c(C)sc2c3c(ccc21)CCCC3,/,?,/,?,-7.0%,-2.2%,-1.2%,?
CCOC(=O)NC1(NC(C)C)Oc2ccccc2O1,-1.9%,-18.0%,-0.3%,12.8%,9.0%,1.0%,3.6%,-19.2%
COc1cc(C(=O)Nc2cccc(NC(=O)c3cccs3)c2)cc(OC)c1OC,/,10.9%,/,/,-19.5%,-5.1%,-2.9%,/
O=C(Oc1c(Br)cc(C(=S)N2CCOCC2)cc1Br)c1ccc(Cl)cc1,?,0.0%,-2.4%,-0.7%,16.8%,25.0%,-23.6%,?
Cc1ccc(C(C)C)c(OCC(=O)N/N=C/C2CCCCC2)c1,/,-1.4%,/,-1.7%[46.1 µM],-23.0%,/,-1.0%,?
O=C(CNCc1ccco1)Nc1ccc(Oc2ccccc2)cc1,/,14.5%,/,-0.7%,-12.1%,/,-1.0%,12.1%
CCOC(=O)c1cnc2cc(Cl)c(OC)cc2c1NCC1CCCO1 (stereo not given),-5.7%,-16.7%,-3.5%,?,-7.3%,-6.3%,0.4%,4.9%
CC(=O)c1cccc(CN2CCCC(C(=O)c3ccc4c(c3)OCO4)C2)c1 (stereo not given),/,-17.0%,/,?,7.4%,-5.0%,0.5%,6.6%[46.1 µM]
COC(=O)/C=C/C(=O)Nc1ccc(O)c(Cl)c1,-18.1%,0.0%,-4.7%,?,-7.6%,4.9%,-9.1%,1.1%
Cn1c(SC(C(=O)Nc2ccc(F)cc2)c2ccccc2)nc2ccccc21 (stereo not given),?,8.9%,-7.4%,4.7%,1.0%,-9.9%,-0.4%,17.2%
COc1cccc(-c2ccc3c(N)c(C(=O)c4ccc(Cl)cc4)sc3n2)c1,7.94µM*,-10.7%,-5.1%,?,/,/,/,?
CNS(=O)(=O)c1cccc(C(=O)NNC(=O)c2ccc(COc3ccccc3)cc2)c1,/,-25.3%,/,?,23.4%,9.0%,1.0%,-1.3%[46.1 µM]
COc1ccc(C)cc1NC(=O)CCC(=O)Nc1nnc(C(F)(F)F)s1,?,16.7%,4.0%,0.5%,10.1%,3.2%,1.0%,5.4%
COc1ccc(NC(=O)Cn2c(=O)oc3cc(S(=O)(=O)N4CCCC4)ccc32)cc1,/,?,/,/,4.1%,-20.5%,-1.7%,/
CN(C)/C=C/C(=O)c1ccccc1OCc1cnc(Cl)s1,/,6.8%,/,2.1%,1.7%,5.6%,-0.6%,-18.0%
CCCOc1ccc(NC(=O)CC2C(=O)N(c3ccc(C)cc3)C(=O)N2Cc2cccc(OC)c2)cc1 (stereo not given),9.8%,-22.1%,-2.6%,/,/,/,/,-9.4%[46.1 µM]
CCCC1C2C(=O)N(c3ccc(OC)cc3)C(=O)C2ON1c1ccccc1 (stereo not given),-1.5%,9.6%,1.5%,10.6%,11.5%,4.7%,-20.6%,15.3%
ON=C(CCc1ccccc1)c1ccccc1,/,29.8%,/,-5.1%,?,/,/,?
CCN1CCN(Cc2ccc(NC(=O)c3cc(NC(=O)c4cc(-c5ccc(OC)cc5)n[nH]4)cc(OC)c3)cc2C(F)(F)F)CC1,/,13.5%,/,/,5.7%,17.9%,0.9%,/
Cn1c(SCC(=O)N2CCCc3ccccc32)nc2cccnc21,-1.8%,?,-1.7%,-16.4%,13.8%,2.9%,-1.5%,2.6%
CCN(CC)S(=O)(=O)c1ccc(N2CCOCC2)c(NC(=O)C2=COCCO2)c1,/,-21.1%,/,1.8%,-17.4%,3.4%,-2.2%,-19.5%
Cc1ccc(NC(=O)Cn2c(=O)n(CCCC(=O)NCc3ccco3)c(=O)c3ccccc32)cc1,?,-2.0%,0.3%,2.0%&-3.7%,-2.4%,-1.0%,-6.5%,-4.3%
Nc1nc(SCc2cccc(Br)c2)n[nH]1,/,-0.8%,/,/,-1.7%,-7.5%,-5.1%,/
O=C(O)c1ccc(CNCc2ccc(Cl)cc2Cl)cc1,-12.8%,-9.3%,3.0%,?,21.9%,-5.3%,3.8%,5.7%
CCCCNC(=O)c1ccc(Cn2c(=S)[nH]c3c([nH]c4ccc(OC)cc43)c2=O)cc1,-0.6%,?,1.9%,?,-2.0%,0.6%,20.4%,?
COC(=O)CN1C(=O)C(O)(CC(=O)c2ccc(F)cc2)c2ccccc21 (stereo not given),-6.9%,-12.4%,0.4%,-0.9%[46.1 µM],/,/,/,0.9%[46.1 µM]
COc1cccc(NC(=O)c2c(C)oc3nc(C)nc(N4CCCC4)c23)c1,14.8%,-3.9%,-1.2%,/,/,/,/,?
